CSC inhib: cancer stem cell inhibition; inhibition, % at 7.5 µM; cancer stem cell-like cells viability, luminescence; AID 2717; 300,000 compounds, 1.1% hits;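 active means mean at 75% or more and at least half the replicates too; inconclusive means mean and replicates disagree; tested in HMLE shEcad cells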;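 further: 0% = median of negative and 100% = median of positive control wells; the first replicate is given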
eIF4H FP inh: inhibitors of RNA binding by human eIF4H. eIF4H fluorescence polarization binding assay. inhibition, % at 35 µM. AID 2012. 290,000 compounds, 0.94% hits;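 active means 50% or more with normal probe brightness, or confirmed in later tests; inconclusive means above 50% with abnormal brightness, or retests that disagree; inactive means below 50% or failed in later tests; about a fifth of its hits are not listed in these tables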;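 further: calls also rest on retests at 20 µM and on dose response follow-up; 0% = protein and probe with vehicle and 100% = probe without protein; strong numbers were not always called active; many hits fall short of the cut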
Rce1 inh: yeast Ras-converting enzyme inhibition | Q03530 | yeast membranes, quenched prenylated peptide cleavage fluorescence | calls only | 290,000 compounds, 0.27% hits;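 active means fall in fluorescence gain of 50% or more versus controls, with final raw signal at or below 3038400; inconclusive means same 50% fall but final raw signal above 3038400; inactive means fall in fluorescence gain under 50%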;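 further: plate controls were neutral control wells for no effect and wells lacking membranes for full effect; tested at 10 µM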
Target sequence (Q03530 whole entry, looked up): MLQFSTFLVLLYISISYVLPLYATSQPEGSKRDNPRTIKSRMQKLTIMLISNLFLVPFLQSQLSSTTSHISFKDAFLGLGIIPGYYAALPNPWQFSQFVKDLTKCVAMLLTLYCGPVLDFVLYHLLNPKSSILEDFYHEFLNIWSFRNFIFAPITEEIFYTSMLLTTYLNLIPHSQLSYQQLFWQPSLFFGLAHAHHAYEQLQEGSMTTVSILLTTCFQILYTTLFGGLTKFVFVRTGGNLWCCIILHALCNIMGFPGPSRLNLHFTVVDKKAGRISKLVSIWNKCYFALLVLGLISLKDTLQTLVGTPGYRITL
HIV Env fusion: HIV envelope-mediated fusion inhibition. HeLa-JRFL Env/CEM21 cell fusion, luciferase. inhibition, % at 12.3 µM. 360,000 compounds, 1.1% hits. AID 651610;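 active means mean replicate inhibition score of at least 50 and every replicate individually at or above 50; inconclusive means only one of the two criteria met; inactive means mean below 50 and not all replicates reaching 50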;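 further: 0% = plate neutral controls and 100% = maraviroc near 300 nM; one replicate is shown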
UUG fidelity: yeast start codon fidelity modulation. activity score, % at 18.7 µM. S. cerevisiae UUG-firefly luciferase reporter, luminescence/redox ratio. 350,000 compounds, 0.13% hits. AID 602363;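 active means replicate mean at a twofold rise or more, about +100% in these data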;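 further: firefly luciferase made from a UUG start codon reports start codon fidelity; reporter light over untreated wells divided by growth signal over untreated wells; some hits fall short of that in this replicate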
PABP FP inh: blocks human PABP binding to poly(A) RNA. P11940. fluorescence polarization. inhibition, % at 35 µM. 290,000 compounds, 1% hits. AID 2014;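 active means 50% or more with normal probe brightness, or confirmed in later tests; inconclusive means above 50% with abnormal brightness, or retests that disagree; inactive means below 50% or failed in later tests; about a fifth of its hits are not listed in these tables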;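 further: calls also rest on retests at 20 µM and on dose response follow-up; controls were probe without protein and protein plus probe with vehicle; some compounds called inactive have numbers as strong as hits; many hits fall short of the cut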
Target sequence (P11940 whole entry, looked up): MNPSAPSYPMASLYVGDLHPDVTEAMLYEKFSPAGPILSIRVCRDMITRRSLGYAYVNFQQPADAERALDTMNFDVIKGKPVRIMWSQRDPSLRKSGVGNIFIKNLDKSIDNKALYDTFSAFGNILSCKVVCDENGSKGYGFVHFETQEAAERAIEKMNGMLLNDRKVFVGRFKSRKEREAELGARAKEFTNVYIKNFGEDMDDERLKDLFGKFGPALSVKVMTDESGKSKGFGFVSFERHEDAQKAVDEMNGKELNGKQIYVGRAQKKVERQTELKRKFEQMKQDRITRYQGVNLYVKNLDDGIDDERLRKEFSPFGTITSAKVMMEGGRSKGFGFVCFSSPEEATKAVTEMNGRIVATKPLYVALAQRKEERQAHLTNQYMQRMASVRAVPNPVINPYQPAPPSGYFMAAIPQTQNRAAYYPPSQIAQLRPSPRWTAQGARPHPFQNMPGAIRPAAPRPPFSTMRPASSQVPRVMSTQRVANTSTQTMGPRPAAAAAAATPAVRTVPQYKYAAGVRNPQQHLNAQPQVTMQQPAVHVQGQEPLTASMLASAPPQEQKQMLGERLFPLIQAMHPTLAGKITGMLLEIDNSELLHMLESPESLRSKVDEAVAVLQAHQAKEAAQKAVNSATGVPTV
MT1-MMP act inh: MT1-MMP (human) activation inhibition | HT1080 RFP-PRO-GFP cells, GFP/RFP ratio fluorescence, overnight; percent of plate control window, DMSO zero | GFP/RFP ratio change, % at 20 µM | 360,000 compounds, 0.061% hits | AID 651647;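 active means GFP/RFP ratio change of at least 30% with cell ATP level not reduced by more than half and red fluorescence within 50% of control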; further: strong numbers were not always called active
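Material: RFP-PRO-GFP reporter HT1080 cells. Dosing: single-point 20 µM compound, 1% DMSO. Controls: DMSO and RFP-L50D-GFP cell wells. Timing: cells overnight before dosing, compound overnight, 37 °C, 5% CO2. Measure: GFP/RFP fluorescence ratio.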
eIF4H FP inh retest: second read-out of eIF4H FP inh, no call of its own (marks repeat the call); inhibition, %; compound at 20 µM; confirmation average;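 mean of two retest wells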
PABP FP inh retest: also measured in PABP FP inh; calls as there; inhibition, %; compound at 20 µM; confirmation repeats;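 mean of two retest wells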
MT1-MMP act inh RFP: further read-out of MT1-MMP act inh, marked with its call; RFP signal change, %; measured here: RFP expression control read;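 0 = vehicle wells; hits needed this value within 50% of zero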
Numbers without * were called inactive; i = inactive; ? = inconclusive; . = not tested or not shown; & = joins results of further samples.

SMILES | CSC inhib | eIF4H FP inh | Rce1 inh | HIV Env fusion | UUG fidelity | PABP FP inh | MT1-MMP act inh | MT1-MMP act inh RFP | others
N#Cc1ccc(NC(=O)CCNC(=O)c2ccco2)cc1Cl | -2 | -12 | . | 8 | 4 | 3 | 2 | 4
O=c1[nH]c2ccccc2n1C1CCN(C(c2nnnn2C2CCCC2)C2CC2)CC1 (stereo not drawn) | . | . | . | -3 | -4 | . | 1 | 1
CCC(C(=O)N1C[C@H]2C[C@@H](C1)c1cccc(=O)n1C2)c1ccccc1 (stereo partly drawn) | 4 | -4 | . | . | -28 | -8 | 3 | -1
Cc1ccc(NC(=O)N2CC2)cc1NC(=O)N1CC1 | . | . | . | 2 | 0 | . | 0 | 5
CN1CCN(CCC(C#N)(c2ccccc2)c2ccccc2)CC1 | 21 | -3 | i | -26 | -10 | 7 | -4 | -6
COc1ccccc1OP(=O)(Nc1cccnc1)Oc1ccccc1OC | . | 6 | i | -2 | . | -3 | -5 | -5
C[C@@H]1CN([C@H](C)CO)C(=O)CCCn2nncc2CO[C@H]1CN(C)C(=O)Oc1cccc2ccccc12 | . | . | . | 24 | -7&13 | . | 2 | 4
Cc1ccc(-c2nn(Cc3ccccc3)cc2C=O)cc1C | -5 | 1 | i | -14 | -14 | 0 | -5 | -3
Cn1c(C(=O)O)c(CC(=O)N2CCN(Cc3ccccc3)CC2)c2ccccc21 | -19 | 4 | i | . | 0 | 5 | -8 | 6
Cc1cc(C)nc(N2Cc3ccccc3C2=N)n1 | 9 | 4 | i | -60 | -5 | -6 | -1 | 2
CCCSP1(=S)NCCCO1 (stereo not drawn) | 6 | -8 | i | . | -15 | 0 | 1 | 0
Cc1cc(/C=C2\C(=O)NC(=O)N(c3cccc(Br)c3)C2=O)c(C)n1C | -5 | ? | i | 3 | . | -7 | -4 | 6
COC(=O)C1=C(c2c(C)noc2C)C[C@@H]2CC[C@H]1N2C(=O)NCCO | -8 | . | . | . | -9 | . | -2 | 1
Cc1cccc2c1N(N=O)CCC2 | 2 | 2 | i | . | . | 4 | -8 | 1
CCN(CC)CC(O)c1ccc(C2CCCC2)cc1 (stereo not drawn) | 20 | 0 | i | 17 | 0 | -4 | 4 | 3
COc1ccc(CCNCc2ccc(SC)cc2)cc1 | 10 | -9 | i | -8 | . | -7 | . | .
CN1C(=O)CCC2(C)C1=CCC1C2CCC2(C)C1CCC2(C)O (stereo not drawn) | . | . | . | -6 | -9 | . | 1 | 3
CC(=O)C1C2c3ccccc3O[C@@]1(C)N=c1s/c(=C/c3ccoc3)c(=O)n12 (stereo partly drawn) | 23 | 48 | i | 5 | . | 8 | -57 | 23
O=C(O)CCn1cc(C=C2C(=O)NC(=S)NC2=O)c(-c2ccccc2)n1 | . | 4 | i | 4 | . | 7 | 2 | 5
COC(=O)C1=C(c2ccc(F)cc2OCc2ccccc2)C[C@@H]2CC[C@H]1N2C(=O)NC1CC1 | -13 | . | . | -11 | -7 | . | 6 | 1
CN1C(=O)C(=Cc2ccc(N3CCOCC3)o2)C(=O)N(C)C1=S | -16 | ? | i | -1 | -12 | ? | -110 | 8
Cc1cc(N=Nc2ccccc2C)ccc1N | 42 | . | i | -89 | -18 | . | -19 | -19
O=C(O)C(Cc1cnc[nH]1)NS(=O)(=O)c1ccc(Cl)cc1 (stereo not drawn) | -10 | 0 | i | -4 | -5 | 11 | 3 | -1
COc1ccc(C2CC(c3c(O)n(CCc4ccccc4)c(=O)[nH]c3=O)=NN2)cc1OC (stereo not drawn) | -5 | 2 | i | 3 | . | 3 | 3 | 2
COCCn1c(O)c(/C=N/NC(=O)CSC(=S)N2CCCC2)c(=O)[nH]c1=S | . | . | . | 3 | -23 | . | -2 | 9
O=c1c2ccccc2nc(-c2ccc([N+](=O)[O-])cc2)n1-c1ccccc1 | 16 | -8 | i | . | -16 | 3 | -1 | 0
COc1ccc2c(c1)c(C(=O)O)c(C)n2C(C)C | -2 | 6 | i | . | -3 | 5 | -7 | -4
CC(=O)c1ccc(NC(=O)N2C[C@H]3C[C@@H](C2)c2cccc(=O)n2C3)cc1 | 2 | -7 | . | . | -13 | -6 | 7 | 6
CCOP(=O)(OCC)c1ccc(O)cc1 | -10 | 1 | i | -15 | -9 | -6 | -2 | -1
O=C1NC(=O)C2(C(=O)N1)C(c1ccc(F)cc1)NC(=S)NC2c1ccc(F)cc1 (stereo not drawn) | 3 | 0 | i | -149 | -9 | 9 | 5 | 11

A draw from above in order of count of non-hydrogen atoms, low to high:
SMILES | CSC inhib | eIF4H FP inh | Rce1 inh | HIV Env fusion | UUG fidelity | PABP FP inh | MT1-MMP act inh | MT1-MMP act inh RFP | others
CCOP(=O)(OCC)c1ccc(O)cc1 | -10 | 1 | i | -15 | -9 | -6 | -2 | -1
Cc1cc(C)nc(N2Cc3ccccc3C2=N)n1 | 9 | 4 | i | -60 | -5 | -6 | -1 | 2
Cc1ccc(NC(=O)N2CC2)cc1NC(=O)N1CC1 | . | . | . | 2 | 0 | . | 0 | 5
CN1C(=O)C(=Cc2ccc(N3CCOCC3)o2)C(=O)N(C)C1=S | -16 | ? | i | -1 | -12 | ? | -110 | 8
CC(=O)C1C2c3ccccc3O[C@@]1(C)N=c1s/c(=C/c3ccoc3)c(=O)n12 (stereo partly drawn) | 23 | 48 | i | 5 | . | 8 | -57 | 23
C[C@@H]1CN([C@H](C)CO)C(=O)CCCn2nncc2CO[C@H]1CN(C)C(=O)Oc1cccc2ccccc12 | . | . | . | 24 | -7&13 | . | 2 | 4

(listing goes on)
SMILES | CSC inhib | eIF4H FP inh | Rce1 inh | HIV Env fusion | UUG fidelity | PABP FP inh | MT1-MMP act inh | MT1-MMP act inh RFP | others
C[C@]12CCC3C(CC[C@H]4C[C@@H](O)CC[C@]34C)C1CC[C@@H]2O (stereo partly drawn) | -20 | . | . | 25 | -13 | . | -1 | 1
NS(=O)(=O)c1ccc(-c2ccc(C=C3C(=O)NC(=S)NC3=O)o2)cc1 | -8 | 15 | i | -18 | . | 2 | . | .
CCN(c1ccc(C(O)(C(=O)OC)C(F)(F)F)cc1)S(=O)(=O)c1ccccc1 (stereo not drawn) | -6 | -3 | i | . | 2 | 2 | -3 | 0
C=CCn1c(O)c(C=Nc2c(C)n(C)n(-c3ccccc3)c2=O)c(=O)[nH]c1=O | . | 32 | i | -13 | 16 | 14 | 0 | -1
COc1ccccc1CNC(=O)CCC(=O)N1C[C@H]2C[C@@H](C1)c1cccc(=O)n1C2 | -6 | -8 | i | . | -22 | 6 | -3 | 2
CC1=Nc2ccccc2/C1=C/c1c(O)n(C)c(=O)[nH]c1=O | 12 | -5 | i | 5 | -3 | -18 | -48 | 8
OC1(c2ccccc2F)CC2CCC(C1)N2CCN1CCOCC1 (stereo not drawn) | -21 | 2 | i | -7 | -21 | -10 | 4 | 4
CCOc1ccc(N=C2SCCCN2C)cc1 | -12 | -3 | . | -8 | -5 | 50 | -2 | -2 | eIF4H FP inh retest=8;PABP FP inh retest=28
COc1ccc(/C=N/N=C(/N)N[N+](=O)[O-])c(OC)c1 | -3 | -11 | i | . | -9 | -12 | 4 | 5
COc1ccc(OC)c(CN2CCCC(C(=O)c3sccc3C)C2)c1 (stereo not drawn) | 10 | 8 | i | -4 | . | -13 | -6 | -2
O=C(Cc1ccccc1)N1CCN(C2CCCC2)CC1 | 13 | 10 | i | -1 | -14 | 26 | 3 | 2
O=C(CN1CCN(Cc2ccc(Cl)cc2)C1=O)N1CCC2(CC1)OCCO2 | -6 | -5 | i | . | -6 | 4 | 1 | 2
CC(C)N1C(=O)CCC1C(=O)N1CCC2(CC1)OCCO2 (stereo not drawn) | 1 | -4 | i | -19 | 41 | -2 | 2 | 0
Cc1cccc(-n2c(O)c(C=NCCCN3CCOCC3)c(=O)[nH]c2=O)c1C | -6 | -4 | i | . | -9 | -5 | -4 | -2
CCOC(=O)CNC(=O)CNC(=O)C(Cc1ccc(N(CCCl)CCCl)cc1)NC(C)=O (stereo not drawn) | 11 | 0 | i | 10 | . | -2 | 2 | 4
CC(=O)c1ccc(OC(=O)N(C)c2ccccc2)cc1 | -8 | 4 | i | -13 | . | -1 | -4 | -1
COc1ccc(C(CC(=O)N2CCC3(CC2)OCCO3)NS(=O)(=O)c2ccc(C)cc2)cc1 (stereo not drawn) | -17 | 6 | i | . | . | 8 | 2 | 3
CC1=C2C(=O)C3C(CC=C4CC(O)CCC43C)C2CCC12OC1CC(C)CNC1C2C (stereo not drawn) | -6 | -4 | i | 7 | -22 | -3 | -2 | 0
C=CCNC(=O)c1c(N)n(Cc2ccco2)c2nc3ccccc3nc12 | 1 | ? | i | -9 | -11 | ? | -123 | 14
O=C1C2CCCN2C(c2cccs2)N1c1ccccn1 (stereo not drawn) | . | -8 | i | -21 | -23 | 4 | -1 | -2

In the list so far, four have fluorine:
SMILES | CSC inhib | eIF4H FP inh | Rce1 inh | HIV Env fusion | UUG fidelity | PABP FP inh | MT1-MMP act inh | MT1-MMP act inh RFP | others
COC(=O)C1=C(c2ccc(F)cc2OCc2ccccc2)C[C@@H]2CC[C@H]1N2C(=O)NC1CC1 | -13 | . | . | -11 | -7 | . | 6 | 1
O=C1NC(=O)C2(C(=O)N1)C(c1ccc(F)cc1)NC(=S)NC2c1ccc(F)cc1 (stereo not drawn) | 3 | 0 | i | -149 | -9 | 9 | 5 | 11
CCN(c1ccc(C(O)(C(=O)OC)C(F)(F)F)cc1)S(=O)(=O)c1ccccc1 (stereo not drawn) | -6 | -3 | i | . | 2 | 2 | -3 | 0
OC1(c2ccccc2F)CC2CCC(C1)N2CCN1CCOCC1 (stereo not drawn) | -21 | 2 | i | -7 | -21 | -10 | 4 | 4

Other records:
SMILES | CSC inhib | eIF4H FP inh | Rce1 inh | HIV Env fusion | UUG fidelity | PABP FP inh | MT1-MMP act inh | MT1-MMP act inh RFP | others
Cc1ccc(/C=C2\C(=O)NC(=O)N(CCc3ccc(F)cc3)C2=O)s1 | 10 | 33 | . | -30 | . | -8 | -1 | 6
Cc1cc(OCC(=O)N2CCC(C(=O)NCC(C)C)CC2)c2c3c(c(=O)oc2c1)CCCC3 | -6 | -4 | i | -3 | -10 | -6 | 7 | -23
C=CC1CN2CCC1CC2c1[nH]c2ccccc2c1CCO (stereo not drawn) | -7 | 2 | i | . | . | 11 | 2 | 5
CN(C)C(=O)Oc1ccc2oc(=O)cc(-c3cc4ccccc4o3)c2c1 | -2 | 1 | i | 11 | -4 | -4 | -6 | 2
O=C(CNC(=O)c1ccc(Cl)cc1)Nc1ccc(Br)cc1C(=O)c1ccccc1 | 8 | -1 | i | 22 | . | 96 | -5 | -10 | eIF4H FP inh retest=-8;PABP FP inh retest=4
Cc1ccccc1-n1c(-c2ccco2)nc2ccccc2c1=O | 15 | -8 | i | -34 | -23 | -9 | -2 | -2
Cc1c(C(=O)N2CCC3(CC2)OCCO3)oc2ccccc12 | -6 | 3 | i | -76 | -3 | 11 | 6 | -2
CN[C@H]1C[C@H]2O[C@@](C)([C@H]1OC)n1c3ccccc3c3c4c(c5c6ccccc6n2c5c31)C(=O)NC4 | . | -9 | i | . | . | -8 | . | .
COC(=O)c1ccc(CN2CCN(Cc3ccccc3)CC2)cc1 | 6 | -3 | i | -77 | 6 | 7 | 2 | 4
Cc1cc(C(=O)N2CCC3(CC2)OCCO3)no1 | -3 | -2 | i | 21 | -8 | 18 | 1 | 1

Screening results from PubChem.

The list is partial; rates above refer to the full screens.
